# Assay outcomes as filed in PubChem.
# GLA inh pH 4.5: qHTS Assay for Inhibitors of Human alpha-Galactosidase at pH 4.5. Alpha-galactosidase A (Homo sapiens), P06280. purified enzyme, 4-MU-alpha-Gal fluorescence, pH 4.5. activity change, negative = inhibition, % at 105 µM. 230,000 tested, under 10 active; inconclusive = small, poorly fitted or top-dose-only inhibition, or a rising curve; inactive = flat fitted curve, though single readings scatter; no compound was filed as active;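 also: 0% = full activity with enzyme and -100% = basal without enzyme; dose as in the result columns while the protocol names 77 µM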
# Rango release inh: qHTS Assay for Inhibitors of RanGTP induced Rango (Ran-regulated importin-beta cargo) - Importin beta complex dissociation | Potency, µM (titrated, usually from 46.1 µM), inactives show at the top dose activity change, negative = inhibition | AID 540253, 2011 | 0.071% of 340,000 active | Biochemical FRET Rango-importin beta, RanGTP-induced dissociation; active means falling FRET ratio curve, often poorly fitted, with flat reads before Ran was added; inconclusive means other falling curves, or compound fluorescence or quenching; inactive means flat or rising ratio curve;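 also: potency is read from the fitted curve at half-maximal effect; % of control where 0% means no effect; nearly all actives have a fitted effect of over 45% in size; -100% = wells without RanGTP and RCC1; the record marks most hits as doubtful in a second field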
#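 Compounds preincubate 5 min with complex of recombinant Rango and importin beta in PBS with 1 mM DTT. Ran (0.6 uM) loaded with 2 mM GTP plus 0.2 uM RCC1 starts dissociation; FRET is recorded 45 min later.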
# miR-21 FLuc: qHTS Assay for Modulators of miRNAs and/orActivators of miR-21; AID 2288, 2010; Potency, µM (highest dose often 38.3 µM), for the others: top-dose reporter change, positive = more light; 340,000 tested, under 10 active; HeLa miR-21 FLuc reporter, luciferase, 48 h; active = well fitted rising curve with a large enough effect; inconclusive = small, poorly fitted or top-dose-only effect; inactive = no such curve, though single readings can be large or run the other way;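 also: % of control where 0% means no effect; miR-21 action dims this reporter so a rising signal means less miR-21 action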
#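 Using DMEM plus 10% FBS, HeLa miR-21-FLuc cells are incubated with test compounds (final up to about 40uM) for 48 hours; firefly luciferase signal is then imaged following reagent-mediated lysis.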
# Rango-impB inh: qHTS Assay for Inhibitors of Rango (Ran-regulated importin-beta cargo) - Importin beta complex formation. Importin subunit beta-1 (Homo sapiens), Q14974. Rango CFP/YFP FRET sensor + importin beta, 45 min. Potency, µM (highest dose often 92.2 µM), without a hit: top-dose inhibition of complex formation. 0.031% of 340,000 active. AID 540263, 2011; active = rising FRET ratio curve, often small or poorly fitted; inconclusive = mostly compound fluorescence or quenching in the first reads; inactive = flat curves in all reads;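 also: potency is read from the fitted curve at half-maximal effect; 0% = DMSO wells and 100% = buffer wells lacking importin beta; nearly all actives have a fitted effect of over 15% in size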
# Target sequence (Q14974 whole entry, looked up): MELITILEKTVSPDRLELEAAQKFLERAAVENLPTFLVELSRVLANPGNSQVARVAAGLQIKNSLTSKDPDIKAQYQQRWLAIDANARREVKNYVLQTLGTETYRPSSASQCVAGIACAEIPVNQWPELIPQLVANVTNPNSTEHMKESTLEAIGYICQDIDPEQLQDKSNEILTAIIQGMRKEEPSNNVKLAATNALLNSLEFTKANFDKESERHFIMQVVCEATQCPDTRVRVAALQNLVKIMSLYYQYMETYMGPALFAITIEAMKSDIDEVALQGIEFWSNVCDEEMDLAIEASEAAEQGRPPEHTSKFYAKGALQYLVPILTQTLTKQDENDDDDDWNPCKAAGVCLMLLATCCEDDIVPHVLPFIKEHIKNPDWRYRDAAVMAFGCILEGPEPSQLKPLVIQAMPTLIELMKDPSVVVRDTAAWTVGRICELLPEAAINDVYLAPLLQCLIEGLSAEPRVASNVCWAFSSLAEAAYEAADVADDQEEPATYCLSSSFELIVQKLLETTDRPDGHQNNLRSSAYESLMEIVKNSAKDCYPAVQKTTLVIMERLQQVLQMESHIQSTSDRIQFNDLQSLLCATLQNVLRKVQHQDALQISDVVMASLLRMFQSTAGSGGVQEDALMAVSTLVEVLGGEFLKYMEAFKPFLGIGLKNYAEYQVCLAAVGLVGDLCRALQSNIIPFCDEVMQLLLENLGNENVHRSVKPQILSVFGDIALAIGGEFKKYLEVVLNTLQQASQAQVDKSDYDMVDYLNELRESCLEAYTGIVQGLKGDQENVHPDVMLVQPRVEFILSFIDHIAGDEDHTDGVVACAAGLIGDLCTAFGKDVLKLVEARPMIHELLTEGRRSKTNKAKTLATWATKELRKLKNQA
#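 Inhibition scored from the CFP 486 nm/YFP 530 nm FRET ratio 45 min after adding 0.125 microM importin beta to 50 nM Rango biosensor preincubated 5 min with compound (room temperature, PBS with DTT, Tween-20, BSA). No-importin wells as positive control.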
# * marks the source's active call; other numbers are inactive results; ? = inconclusive; / = not tested or not shown; & = joins results of further samples; [ ] = dose if it differs, or a comment. An excerpt; count on the stated rates, not on these rows.
GLA inh pH 4.5	Rango release inh	miR-21 FLuc	Rango-impB inh	structure
3	6%	-40%	-1.5%	O=C(OCc1ccccc1)c1cccc(-c2nnn(Cc3ccccc3)n2)c1
-2	13%	-19%	3.5%	O=C(c1cc2ccccn2n1)N1CCN(c2ccccn2)CC1
4	-7%	-3%	-0.5%	Cc1ccc(-c2nc(N)sc2CC(=O)OCC(=O)NCCC(C)C)cc1
-3	-2%	-1%	5.2%	Cn1c(SCc2ccc(Br)cc2)nnc1-c1ccncc1
3	-5%	-8%	-0.6%	COc1ccc2c(c1)C(c1ccc([N+](=O)[O-])cc1)=NNC(c1ccco1)=N2
-8	25%	-11%	-0.4%	O=C(COC(=O)c1ccccc1NC(=O)c1ccccc1)c1ccc([N+](=O)[O-])cc1
0	10%	-7%	-1.3%	CCOc1cc(C(=O)N2CCOCC2)ccc1OCc1ccccc1
-5	-8%	1%	3.6%	CC(=O)Nc1ccc(S(=O)(=O)N(Cc2ccccc2)c2ccccc2F)cc1
6	-14%	-2%	-9.0%	c1ccc2cc(CN3CCOCC3)ccc2c1
0	5%	10%	-1.7%	CC(=O)N(C)N1c2ccccc2CCc2ccccc21

GLA inh pH 4.5	Rango release inh	miR-21 FLuc	Rango-impB inh	structure
-7	6%	-40%	0.4%	COc1ccc(-c2cnnc(N/N=C/c3ccc(O)c(O)c3)n2)cc1
/	-14%	-43%	?	O=C(Cc1nc2ccccc2[nH]1)c1ccc(Cl)cc1
/	1%	/	-1.6%	COc1ccc(OC)c(S(=O)(=O)Nc2ccccc2C(=O)N2CCCCC2)c1
/	25%	-8%	0.3%	COC(=O)c1ccc(NC(=O)CCC(=O)c2ccc(F)cc2)cc1
/	1%	3%	-12%	COCCNC(=O)c1cccc(NC(=O)C2=C(C)OCCS2)c1
/	-4%	/	0.3%	O=C(Nc1ccccc1)c1cc(S(=O)(=O)N2CCCCC2)ccc1N1CCOCC1
6	19%	-55%	-0.5%	Nc1ncnc(Nc2ccc(F)c(Cl)c2)n1
7	?	-3%	-1.2%	Cc1nc(CN(C)C(=O)c2ccccc2OC2CCN(S(C)(=O)=O)CC2)cs1
5	-1%	-3%	0.9%	CSc1ccc(C2C3(C#N)C(N)=NC4(OCCO4)C23C#N)cc1 (stereo not given)
3	1%	-4%	1.6%	c1coc(CN=C2NC(=NCc3ccco3)c3ccccc32)c1

GLA inh pH 4.5	Rango release inh	miR-21 FLuc	Rango-impB inh	structure
5	-13%	-12%	-0.9%	Nc1nnc(COc2ccccc2)s1
-18	-12%	-3%	0.3%	Cc1ccc(C(C)C)c(OCC(=O)Nc2ccc(Cl)cn2)c1
2	-14%	-30%	0.1%	COc1ccc2c(c1)Cc1sc(NC(=O)c3ccco3)nc1-2
/	6%	1%	-0.7%	O=C1OCCN1c1c(-c2ccccc2)c(-c2cccs2)nc2c(-c3ccccc3)cccc12
/	7%	-13%	-1.2%	CC(C)Cc1nnc(NC(=O)c2cc(S(=O)(=O)N(C)C)ccc2N2CCCC2)s1
1	16%	-2%	1.9%	COc1ccccc1OCCNc1cc(N2CCCCC2)ccc1[N+](=O)[O-]
1	13%	0%	?	Cn1nnnc1SCc1nc2scc(-c3ccc(Cl)cc3)c2c(=O)[nH]1
/	4%	10%	0.0%	CNC(=S)N1N=C(c2cccs2)CC1c1ccc(F)cc1 (stereo not given)
0	-4%	-5%	-1.2%	CC(=O)c1ccc(NS(=O)(=O)Cc2ccccc2)cc1
/	3%	/	0.5%	O=C1CC2CC1C(C(=O)O)C2C(=O)O (stereo not given)

# 3 compounds from above, ordered by heavy-atom count, falling:
GLA inh pH 4.5	Rango release inh	miR-21 FLuc	Rango-impB inh	structure
/	6%	1%	-0.7%	O=C1OCCN1c1c(-c2ccccc2)c(-c2cccs2)nc2c(-c3ccccc3)cccc12
-2	13%	-19%	3.5%	O=C(c1cc2ccccn2n1)N1CCN(c2ccccn2)CC1
/	3%	/	0.5%	O=C1CC2CC1C(C(=O)O)C2C(=O)O (stereo not given)

# Continued.
GLA inh pH 4.5	Rango release inh	miR-21 FLuc	Rango-impB inh	structure
-3	6%	-35%	1.4%	Oc1ccc(-c2cccc(-c3ccc(O)cc3)n2)cc1
/	18%	6%	1.5%	COc1cccc(CNS(=O)(=O)c2ccc(N3CCCC3=O)cc2)c1
2	22%	-6%	-1.0%	Cc1ccc(NC(=O)CN(C)C(=O)C2COc3ccccc3O2)cc1 (stereo not given)
-6[21.1 µM]	-14%	-3%	-0.2%	CC(C)N(Cc1cc2ccccc2[nH]c1=O)C(=O)c1ccco1
6[21.1 µM]	7%	3%	-1.5%	COc1ccc(OC)c(S(=O)(=O)Nc2cc(C(=O)O)ccc2N2CC3CC(C2)c2cccc(=O)n2C3)c1 (stereo not given)
4	17%	-6%	0.9%	Cc1ccc(-n2nnnc2SCC(=O)Nc2ccc3c(c2)OCCO3)cc1C
4	-4%	0%	6.5%	O=C(c1ccco1)N1CCN(C(=O)c2cccs2)CC1
/	-6%	-3%	-0.6%	C=CCOc1cccc(C2/C(=C(\O)c3ccc4c(c3)OCCO4)C(=O)C(=O)N2CCN2CCOCC2)c1 (stereo not given)
-8	-9%	-35%	4.7%	CC1CCCC(C)N1C(=O)C1CC(c2ccc(F)cc2)=NO1 (stereo not given)
-6	11%	1%	-0.2%	O=C(Nc1ccncc1)Nc1ccncc1

GLA inh pH 4.5	Rango release inh	miR-21 FLuc	Rango-impB inh	structure
/	6%	-8%	0.9%	COC(=O)C(Cc1c[nH]c2ccccc12)NC(=O)c1ccccc1Br (stereo not given)
7	1%	6%	-1.7%	CCOC(=O)N1CCC2(CC1)C(C#N)=C(N)Oc1n[nH]c(C)c12
/	-6%	1%	-1.2%	O=S(=O)(c1ccccc1)c1nnn2c1nc(NC1CCN(Cc3ccccc3)CC1)c1cc(Cl)ccc12
1&5	1%	-1%&-6%	0.4%	O=C1NCCc2c1[nH]c1ccccc21
-9	-9%	4%	?	CC1CCN(CCOCCOc2ccc(Br)cc2Cl)CC1
0	-2%	-8%	4.7%	CCCCOc1ccccc1-c1cc(C(=O)O)[nH]n1
-13	4%	-1%	-0.6%	CN1CCN(C(=S)Nc2cc(S(=O)(=O)N3CCOCC3)ccc2Cl)CC1
6	2%	-17%	-2.9%	O=C(NCc1ccccc1)c1ccc(Cl)cc1
-18	-4%	-1%	-4.2%	O=C(Cn1c(C(F)(F)F)nc2ccccc21)OCC(=O)c1c[nH]c2ccccc12
/	-10%	2%	0.2%	CC(Sc1nnc(-c2ccco2)n1C)C(=O)N1C(C)CCCC1C (stereo not given)

GLA inh pH 4.5	Rango release inh	miR-21 FLuc	Rango-impB inh	structure
-8	16%	-13%	0.5%	CCOC(=O)c1ccc(NC(=S)Nc2cccc(C)n2)cc1
/	4%	/	1.2%	O=C(O)C1=C[C@@H](c2ccc(C(F)(F)F)cc2)C[C@@H](OCCCCO)O1
0	-8%	-15%	-1.1%	c1ccc(-c2noc(CCC3CCCC3)n2)cc1
0	-4%	-5%	-0.4%	O=C(CN1CCOCC1)Nc1ncc(Cc2cccc(Cl)c2Cl)s1
5	8%	8%	0.7%	COc1cccc(N=C(N)N=C(N)N)c1
/	-3%	0%	-0.3%	O=C(NC1CCCC1)C(c1ccco1)N(C(=O)c1csnn1)c1ccccc1 (stereo not given)
4	?	-1%	?	CCNC(=O)N1c2ccc(OC)cc2C(C)=CC1(C)C
5	19%	-3%	4.1%	CSc1ccc(/C=N/NC(=O)CN2CCN(Cc3ccccc3)CC2)cc1
0	17%	0%	1.7%	O=C(NCc1cccnc1)c1cccc(S(=O)(=O)N2CCCCC2)c1
-5	-8%	-6%	0.3%	COc1cccc(NC(=S)N(CCCN2CCCC(C)C2)Cc2cccs2)c1 (stereo not given)

GLA inh pH 4.5	Rango release inh	miR-21 FLuc	Rango-impB inh	structure
-9	-1%	-17%	-0.4%	CN(C)c1ccc(C2Nc3ccccc3C(=O)N2CCCN2CCOCC2)cc1 (stereo not given)
4	14%	-9%	3.4%	Cc1ccccc1-c1nc(CS(=O)(=O)CC(=O)NCCCN2C(C)CCCC2C)c(C)o1 (stereo not given)
0	13%	-10%	-2.7%	Cc1ccc(C(=O)CNc2ccc(Cl)cc2)cc1
0	-1%	-8%	-3.5%	Cc1ccccc1OCc1nc2ccccc2c(=O)n1NC(=O)c1ccco1
1	0%	-9%	4.1%	O=C(/C=C/c1ccc(Cl)cc1)NC1CCS(=O)(=O)C1 (stereo not given)
/	2%	/	0.6%	CC1CC1C(=O)N(C)CC(=O)Nc1ccccc1Br (stereo not given)
2	-2%	-1%	-3.0%	Nc1c(NCCN2CCOCC2)c2ccccc2oc1=O
/	2%	-10%	-0.1%	Cc1ccc(OCC(=O)NNC(=O)c2ccc(NC(=O)C3CC3)cc2)c(C)c1
-19	-7%	-1%[7.66 µM]	-0.2%	CCCCn1c(Cc2ccccc2)nnc1SCC(=O)N1CCOCC1
/	-2%	-3%	5.3%	CCOC(=O)CC1C(=O)NCCN1C(=O)c1c(Cl)cccc1Cl (stereo not given)

GLA inh pH 4.5	Rango release inh	miR-21 FLuc	Rango-impB inh	structure
/	12%	7%	-2.1%	COc1ccccc1/C=C1\SC(=S)N(CCC(=O)NNC(=O)c2ccccc2OC)C1=O
-5	9%	2%	-4.3%	COc1cccc(C2=NO[C@@H]3C(=O)N(c4ccc5c(c4)OCCO5)C(=O)[C@H]23)c1OC
-1	1%	18%	5.4%	Cc1cc(C(=O)NNc2ccccc2F)no1
-2	-5%	-2%	4.9%	O=C(NN1C(=O)/C(=C\c2cccnc2)SC1=S)C(c1ccccc1)c1ccccc1
11	24%	-1%	-1.1%	CS(=O)(=O)Nc1cccc(C(=O)CC2(O)C(=O)Nc3ccccc32)c1 (stereo not given)
-3	-4%	-2%	-4.8%	CCN1C(=O)/C(=C/C=C2/Sc3ccc4ccccc4c3N2CCO)SC1=S
/	13%	-1%	4.7%	O=CN1CCN(S(=O)(=O)c2ccc(S(=O)(=O)NC3CCCCC3)cc2)CC1
/	?	9%	-4.7%	COc1cccc(NC(=O)c2ccc(CN3CCc4ccccc4C3)cc2)c1
6	-11%	3%	1.1%	COc1ccc(CNC(=O)CN(Cc2ccc(F)cc2)C(=O)c2csnn2)cc1
0	1%	-5%	-2.4%	Cc1ccc(Cn2ncc3c(NCCCN4CCOCC4)ncnc32)cc1

# Gathered by group: those above with a cyano group.
GLA inh pH 4.5	Rango release inh	miR-21 FLuc	Rango-impB inh	structure
5	-1%	-3%	0.9%	CSc1ccc(C2C3(C#N)C(N)=NC4(OCCO4)C23C#N)cc1 (stereo not given)
7	1%	6%	-1.7%	CCOC(=O)N1CCC2(CC1)C(C#N)=C(N)Oc1n[nH]c(C)c12

# Additional compounds follow.
GLA inh pH 4.5	Rango release inh	miR-21 FLuc	Rango-impB inh	structure
/	-11%	/	4.9%	Cc1nnc(NC(=O)CSCc2c(C)noc2C)s1
-14	-15%	-13%	-2.7%	Cc1cc(C)cc(NC(=O)Nc2ccccc2N2CCCCC2)c1
-6	1%	-8%	1.5%	CCOC(=O)c1c(NC(=O)CSC(=S)N(C)C)sc(C)c1C
/	?	1%	?	CC1CCCN(S(=O)(=O)c2ccc3c(c2)c(=O)nc2ccc(Cl)cn23)C1 (stereo not given)
-4	-15%	-1%	?	O=c1c2cc(Br)ccc2nc(-c2cccc(C(F)(F)F)c2)n1O
-6	-1%	-3%	-0.7%	O=S(=O)(/N=C(/Nc1ccccc1)C(F)(F)F)c1ccccc1
6	0%	-7%	0.7%	Cn1c(=O)oc2cc(S(=O)(=O)NCc3ccco3)ccc21
/	11%	/	6.2%	COC(=O)[C@@]12CCCCN1[C@H](c1ccc(-c3ccc(Cl)c(Cl)c3)c(OC)c1)[C@@H]1C(=O)N(C)C(=O)[C@@H]12
/	-17%	3%	3.7%	CSc1ccccc1C(=O)NC1CCCN(c2ccc(C(F)(F)F)cn2)C1 (stereo not given)
/	8%	/	0.8%	O=C(COC(=O)C1CCN(S(=O)(=O)c2ccccc2)CC1)NCCc1ccccc1
/	27%	/	-6.7%	COc1ccccc1CN(C)C(=O)c1cccc(S(=O)(=O)N2CCN(Cc3ccccc3)CC2)c1
